miR-21 reporter: miR-21 reporter, rising signal. HeLa miR-21 FLuc reporter, luciferase, 48 h. Potency, µM (series often up to 38.3 µM), for inactives: at the highest dose reporter change, positive = more light. 340,000 tested, under 10 active. AID 2288; active = well fitted rising curve with a large enough effect; inconclusive = small, poorly fitted or top-dose-only effect; inactive = no such curve, though single readings can be large or run the other way;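 note: % of control where 0% means no effect; miR-21 action dims this reporter so a rising signal means less miR-21 action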
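Luminescence from a firefly luciferase reporter carrying a miR-21 binding site downstream, stably expressed under a CMV promoter in HeLa cells that make miR-21 endogenously, reports miRNA modulation after 48 h compound exposure up to approximately 40uM final.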
Rango dissoc inh: inhibition of RanGTP-driven Rango-importin beta dissociation; O95149+P62826; Biochemical FRET Rango-importin beta, RanGTP-induced dissociation; Potency, µM (doses to about 46.1 µM), without a hit: top-dose activity change, negative = inhibition; 340,000 compounds, 0.071% hits; AID 540253; active means falling FRET ratio curve, often poorly fitted, with flat reads before Ran was added; inconclusive means other falling curves, or compound fluorescence or quenching; inactive means flat or rising ratio curve;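 note: potency is the fitted concentration of half-maximal effect; % of control where 0% means no effect; nearly all actives have a fitted effect of over 45% in size; -100% = wells without RanGTP and RCC1; the record marks most hits as doubtful in a second field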
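Two FRET readings bracket the reaction: one 5 min after compound meets Rango–importin beta, another 45 min after RanGTP-RCC1 (0.6 uM Ran, 0.2 uM RCC1, 2 mM GTP) is added. Only the second defines inhibition.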
GLA inh pH 4.5: alpha-galactosidase A (human) inhibition, pH 4.5; activity change, negative = inhibition, % at 105 µM; 230,000 tested, under 10 active; AID 1467; purified enzyme, 4-MU-alpha-Gal fluorescence, pH 4.5; inconclusive = small, poorly fitted or top-dose-only inhibition, or a rising curve; inactive = flat fitted curve, though single readings scatter; no compound was filed as active;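 note: 0% = full activity with enzyme and -100% = basal without enzyme; dose as in the result columns while the protocol names 77 µM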
Target sequence (P06280 whole entry, looked up): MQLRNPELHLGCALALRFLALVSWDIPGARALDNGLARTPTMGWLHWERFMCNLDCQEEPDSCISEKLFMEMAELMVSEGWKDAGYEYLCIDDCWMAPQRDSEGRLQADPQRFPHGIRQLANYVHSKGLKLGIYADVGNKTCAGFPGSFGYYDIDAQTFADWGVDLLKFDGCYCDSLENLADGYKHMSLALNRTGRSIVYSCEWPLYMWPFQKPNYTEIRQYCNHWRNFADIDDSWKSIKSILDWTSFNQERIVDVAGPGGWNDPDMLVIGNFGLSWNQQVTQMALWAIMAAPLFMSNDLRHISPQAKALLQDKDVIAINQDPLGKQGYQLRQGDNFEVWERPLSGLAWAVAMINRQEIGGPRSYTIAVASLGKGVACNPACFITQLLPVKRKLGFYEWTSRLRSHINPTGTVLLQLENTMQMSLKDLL
Rango complex inh: prevents formation of the Rango-importin beta complex | Rango CFP/YFP FRET sensor + importin beta, 45 min | 340,000 compounds, 0.031% hits | Potency, µM (highest dose often 92.2 µM), without a hit: at the highest dose inhibition of complex formation | AID 540263 | Q14974; active = rising FRET ratio curve, often small or poorly fitted; inconclusive = mostly compound fluorescence or quenching in the first reads; inactive = flat curves in all reads;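 note: potency is the fitted concentration of half-maximal effect; 0% = DMSO wells and 100% = buffer wells lacking importin beta; nearly all actives have a fitted effect of over 15% in size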
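Inhibition scored from the CFP 486 nm/YFP 530 nm FRET ratio 45 min after adding 0.125 microM importin beta to 50 nM Rango biosensor preincubated 5 min with compound (room temperature, PBS with DTT, Tween-20, BSA). No-importin wells as positive control.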
Starred values were filed as active, the others as inactive; ? = inconclusive; / = no result given; & = joins results of further samples. An excerpt; count on the stated rates, not on these rows.

miR-21 reporter | Rango dissoc inh | GLA inh pH 4.5 | Rango complex inh | Compound
15% | -3% | -2 | 0.8% | O=C(CSc1nc(-c2ccccc2)c(-c2ccccc2)o1)NC1CCS(=O)(=O)C1 (stereo unspecified)
-6% | 5% | / | -2.8% | COc1ccc(CNC(=O)C(=O)NCC2OCCN2C(=O)c2ccc(OC)cc2)cc1 (stereo unspecified)
27% | ? | 5 | ? | C[n+]1ccc(/C=C/c2c[nH]c3ccccc23)cc1
/ | -8% | / | 6.4% | CC(Sc1ccccn1)C(=O)Nc1ccc2c(c1)OCCO2 (stereo unspecified)
18% | 14% | -7 | -0.7% | O=C(COC(=O)c1c2c(nc3ccccc13)CCN(Cc1ccccc1)C2)Nc1c(F)cccc1F
-1% | -17% | -2 | 3.6% | O=c1[nH]c(Cc2ccc(Cl)cc2)nc2ccccc12
/ | 2% | / | -1.1% | Cc1ccc(NS(=O)(=O)c2ccc(C(=O)N3CC(C)CC(C)C3)cc2)cc1 (stereo unspecified)
/ | -3% | / | -1.7% | Cc1noc(C)c1COc1ccc(C(=O)NNC(=O)c2ccccc2)cc1
-7% | -17% | 9 | -1.1% | Cc1ccc(-c2nn(-c3ccccc3)cc2/C=C(\C#N)C(=O)NCc2ccccc2)cc1
1% | 27% | 0 | -3.0% | O=C(NCCC1=CCCCC1)C1CCCN(c2nc3ccccc3o2)C1 (stereo unspecified)
-4% | ? | -16 | -0.2% | Cc1nn(-c2ccccc2)c2sc(C(=O)N(Cc3ccco3)C(C)C(=O)NC(C)(C)C)cc12 (stereo unspecified)
-2% | -3% | / | -0.6% | CC(=O)Nc1ccc(C2NC(=O)CCC2[N+](=O)[O-])cc1 (stereo unspecified)
-11% | 11% | / | -1.7% | O=C(Nc1cccnc1Cl)c1cccs1
-9% | -2% | / | -2.3% | O=c1[nH]c(C2CCN(S(=O)(=O)c3ccc4c(c3)OCCO4)CC2)nc2c1nnn2Cc1ccccc1
0% | 30% | / | 0.9% | CC(CN1CCOCC1)OC(=O)c1ccccc1Cl (stereo unspecified)
-10% | 45% | 5 | 6.1% | CSc1ccccc1C(=O)NCc1ccccc1C
-60% | 6% | -2 | 1.4% | Cc1ccsc1/C=N/NC(=O)c1ccc(-n2cccc2)cc1
/ | 0% | / | ? | c1ccc(CCNCc2ccco2)nc1
1% | / | 1 | / | O=C1CC(c2ccc(Cl)cc2)CC(O)=C1C=NCCN1CCNCC1 (stereo unspecified)
-8% | 18% | 1 | -3.3% | NNC(=O)CCn1nnc2ccccc21
16% | -2% | / | -2.4% | CCOc1ccc(NS(=O)(=O)c2ccc(-c3cnc(C4CC4)o3)cc2)cc1
-3% | 19% | 4 | 1.6% | CCOC(=O)C(NC(C)=O)C(=O)Nc1ccc(OC)cc1 (stereo unspecified)
-2% | -11% | 6 | -1.7% | COCCN(C(=O)Cc1cccs1)C(C(=O)NC1CCCC1)c1ccc(OC)c(OC)c1 (stereo unspecified)
-2% | 13% | 4 | 0.2% | COc1ccc(OCCNc2cc(N3CCCCC3)ccc2[N+](=O)[O-])cc1
-2% | 11% | 6 | -3.4% | COc1cc(OC)cc(C(=O)NNC(=O)c2cc3c(s2)CCCC3)c1
-3% | -15% | -4 | 0.9% | Cc1cc2cc(CNC(=O)Nc3ccc(Cl)c(Cl)c3)ccc2n1C
-1% | -3% | / | 0.3% | Cc1ccc(CNC(=O)CCc2nnc3ccc(N4CCC5(CC4)OCCO5)nn23)cc1
20% | ? | -8 | -3.1% | Cc1c(N/N=C(\C#N)C(=O)c2ccccc2)c(=O)n(-c2ccccc2)n1C
4% | 5% | 6 | -1.4% | OCc1c(Cl)nc2ccccn12
/ | 10% | / | -2.0% | COc1ccc(C2CC(c3ccccc3)=NN2C(=O)COC(=O)c2ccc(S(C)(=O)=O)cc2)cc1 (stereo unspecified)
/ | -20% | / | 0.0% | O=C(COC(=O)c1cncc(Br)c1)Nc1ccc(F)c(F)c1F
-1% | -15% | / | ? | COc1ccc(CC(=O)Oc2ccc(C#N)cc2)cc1
-9% | 27% | 11 | -0.6% | COc1ccc(NC(=O)C(=O)NNC(=O)c2cccs2)c(OC)c1
0% | -2% | -24 | -3.6% | COC(=O)c1c(C)nc2ccccc2c1-c1ccccc1
-10% | ? | -3 | ? | Cc1nn(Cc2ccc([N+](=O)[O-])cc2)c(=O)n1N(C)c1ncc(C(F)(F)F)cc1Cl
-28% | -4% | 2 | 0.6% | O=C(COC(=O)c1cccs1)Nc1nc(-c2ccccc2)cs1
-5% | 7% | -1 | 3.2% | CCN(CC)C(=S)Sc1c(-c2ccccc2)c2cc(Cl)ccc2[nH]c1=O
-66% | -14% | 3 | ? | Cc1ccsc1C1NC(=O)c2c(sc3c2CCCC3)N1 (stereo unspecified)
4% | -3% | -4 | -0.3% | CCN(CC)CC#CC(OC)(c1ccccc1)c1ccccc1
13% | 4% | / | 4.4% | CC(=O)c1cccc(NC(=O)CSc2nc(C3CC3)nc3ccccc23)c1
-1% | -5% | 9 | -2.4% | Cn1c(C(=O)O)ccc1S(=O)(=O)N1CCCCCC1
-9% | 2% | -9 | -3.9% | S=C(Nc1ccccc1)N1CCN(c2ccccn2)CC1
4% | -12% | / | 0.1% | CC1Cc2cc(S(=O)(=O)N3CCCCC3C)ccc2N1C(=O)C1CCC1 (stereo unspecified)
-4% | 7% | / | 5.6% | CCCC(=O)Nc1nnc(SCC(=O)N2C(C)CCCC2C)s1 (stereo unspecified)
1% | -2% | -8 | 1.3% | COc1ccc(NC(=O)CCC(=O)Nc2nnc(C(F)(F)F)s2)c(OC)c1
0% | 17% | -5 | -3.0% | NC(=O)C1=C[C@H](c2ccc(C(F)(F)F)cc2)C[C@H](OCc2ccc(CO)cc2)O1
-36% | 4% | 0 | 1.4% | Cc1ccc(-c2nc3sc4c(c3c(=O)n2N)CCCC4)cc1
-7% | -7% | 0 | -1.4% | C=CCn1c(SCC(=O)/C(C#N)=C(\C)N)nc2sc(C)c(C)c2c1=O
9% | 6% | / | 1.8% | COc1ccc(CC(=O)O/N=C(\N)c2ccc(Br)cc2)cc1OC
-9% | -2% | 5 | 2.2% | Cc1occc1-c1n[nH]c(=S)n1CC(C)C
1% | ? | 3 | 1.2% | N#Cc1nc(Cc2cccc3ccccc23)oc1NCCN1CCOCC1
1% | -2% | -13 | 0.0% | C=CCn1c(SCc2cccc(F)c2)nc2cc(C(=O)N3CCC(C(N)=O)CC3)ccc2c1=O
-6% | 3% | 1 | 1.3% | CC(C)(C)OC(=O)NNC(=S)NC1CCCCC1
1% | -7% | -2 | 0.5% | O=C1/C(=C\c2cccnc2)SC(=S)N1C1CCS(=O)(=O)C1 (stereo unspecified)
-1% | 21% | 3 | -2.8% | CN(C)Cc1cc(C(C)(C)C)cc(C(C)(C)C)c1O
6% | 12% | / | 1.0% | CCOc1ccc(S(=O)(=O)N2CCCCC2)cc1NC(=O)CN1C(=O)NC(CC)(c2ccccc2)C1=O (stereo unspecified)
-1% | 1% | -1 | 0.8% | O=C(NNc1ncnc2sccc12)c1ccc(Cl)cc1
-7% | 1% | / | -3.0% | Cn1c(SCC(=O)c2ccc(O)cc2O)nnc1-c1ccccc1
-1% | 16% | 1 | -2.9% | Cc1c(CC(=O)O)c(=O)oc2cc3oc4c(c3cc12)CCCC4
/ | 1% | / | -1.0% | OC(COc1cccc2ccccc12)CN1CCOCC1 (stereo unspecified)

New compounds follow.
miR-21 reporter | Rango dissoc inh | GLA inh pH 4.5 | Rango complex inh | Compound
0% | 0% | 3 | -0.4% | CCn1cc([N+](=O)[O-])c(C(=O)Nc2ccc(Cn3nc(C)cc3C)cc2)n1
0% | 1% | / | 2.1% | CN(C)C(=O)COc1ccc2c3c(c(=O)oc2c1)CCCC3
1% | -10% | 2&-12&-2&-10 | -3.0% | CCN(CC)CCOC(=O)C1(C2CCCCC2)CCCCC1
-2% | -14% | / | -1.0% | O=C(O)c1ccccc1C(=O)Nc1cc(-c2ccccc2)[nH]n1
-4% | 14% | / | -0.8% | COc1ccc(CN2CCNC(=O)C2CC(=O)N(C)CC2CCOCC2)cc1C (stereo unspecified)
-1% | -7% | 1 | 7.6% | CCN(CCC(=O)Nc1cc(OC)cc(OC)c1)Cc1ccccc1
-7% | -10% | 1 | 0.1% | Cn1c(COc2ccc3ccccc3c2)nnc1SCC(=O)O
/ | 1% | / | 0.4% | O=C(CCOc1cccc(Br)c1)Nc1ccc(F)c(S(=O)(=O)N2CCOCC2)c1
1% | -8% | / | 0.9% | COc1ccc(CNS(=O)(=O)c2cn(C)c(=O)n(C)c2=O)cc1
/ | 9% | / | 3.7% | O=C1NCCOC(=O)[C@H](Cc2ccc(F)cc2)C/C=C\C[C@@H]1CC(=O)N(CCO)Cc1ccccc1
/ | 1% | / | -1.0% | Cc1ccc(NC(=O)c2ccc(=O)[nH]n2)cc1S(=O)(=O)Nc1ccc(SC(F)F)cc1
/ | -9% | / | -4.2% | CC(C)(C)OC(=O)N1CCN(C(=O)c2nc[nH]c2C(=O)N2CCN(C(=O)OC(C)(C)C)CC2)CC1
-47% | 16% | 2 | 1.8% | CN(C(=O)COc1ccccc1C(=O)NCCc1ccccc1)c1ccccc1
-44% | -21% | 4 | 8.3% | COc1ccc(/C(N)=N/OC(=O)CCCc2ccccc2)cc1
-6% | ? | -2 | ? | CC(=O)N1CC=C2C(C#N)=C(N)C(C#N)(C#N)[C@H](c3ccoc3)[C@H]2C1
-4% | 13% | 2 | -0.4% | CC1CCN(C(=S)c2ccc([N+](=O)[O-])cc2)CC1
-2% | -10% | -6 | -2.6% | COc1ccc(OCC(O)CN2CCN(Cc3ccc4c(c3)OCO4)CC2)cc1 (stereo unspecified)
/ | -10% | / | -4.3% | Cc1ccsc1C(=O)NNC(=O)c1ccccc1F
-4% | 39% | / | 6.8% | O=C(N/N=C/c1ccccc1F)C(=O)N1CCCCCC1
/ | -14% | / | -1.9% | CCN(CC(=O)Nc1ccc(NC(C)=O)cc1)C(=O)c1ccc(COc2ccccc2)o1
0% | 16% | 1 | -1.9% | CS(=O)(=O)c1ccc(-c2cn3cc(C(=O)O)ccc3n2)cc1
2% | -11% | / | 0.1% | Cc1cccc(N(CC(=O)N2CCCCCC2)S(C)(=O)=O)c1
/ | -1% | / | -0.7% | COc1ccc([C@@H](NC(=O)OC(C)(C)C)C(=O)OC(C)(C)C)cc1
4% | -7% | / | -5.0% | Cc1cccc2c(=O)c(C(=O)NCc3ccc(F)cc3)c[nH]c12
-45% | -5% | / | 1.6% | O=Cc1cccc(OCc2cccc3ccccc23)c1
-6% | 15% | -6 | 0.3% | CCN(CC)CCNC(C(=O)Nc1ccc([N+](=O)[O-])cc1Br)c1ccccc1 (stereo unspecified)
-35% | -1% | / | 3.5% | CCc1ccc(NC(=O)C2CCN(C(=O)[C@@H]3Cc4ccccc4CN3)CC2)cc1
/ | -1% | / | -0.1% | COc1cc(C(=O)OC(C)C(=O)N2CCCC2)cc2c1OCCO2 (stereo unspecified)

Six compounds from above, arranged by the value under GLA inh pH 4.5, largest number first.
miR-21 reporter | Rango dissoc inh | GLA inh pH 4.5 | Rango complex inh | Compound
-44% | -21% | 4 | 8.3% | COc1ccc(/C(N)=N/OC(=O)CCCc2ccccc2)cc1
0% | 0% | 3 | -0.4% | CCn1cc([N+](=O)[O-])c(C(=O)Nc2ccc(Cn3nc(C)cc3C)cc2)n1
-4% | 13% | 2 | -0.4% | CC1CCN(C(=S)c2ccc([N+](=O)[O-])cc2)CC1
-7% | -10% | 1 | 0.1% | Cn1c(COc2ccc3ccccc3c2)nnc1SCC(=O)O
-6% | ? | -2 | ? | CC(=O)N1CC=C2C(C#N)=C(N)C(C#N)(C#N)[C@H](c3ccoc3)[C@H]2C1
-2% | -10% | -6 | -2.6% | COc1ccc(OCC(O)CN2CCN(Cc3ccc4c(c3)OCO4)CC2)cc1 (stereo unspecified)

Screening results from PubChem BioAssay.
